# TRPML1 ag: human mucolipin-1 channel agonism | actives 0.12% (n = 410,000) | activation, % (test concentration not listed) | Q9GZU1 | TRPML1-expressing cells, Ca2+ dye fluorescence, FDSS; host cell line not named in the record; reference of the full effect not given here | AID 624414; in the data active = activation above about 50%; inconclusive = about 30% to 50%; inactive = below about 30%; further: 0% is about no effect; the text of the record puts the active cut at 80%
#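 In this qHTS format, compounds were pin-transferred onto Ca8-dye-loaded TRPML1-DL cells induced with Tet overnight, and intracellular Ca2+ fluorescence was recorded kinetically for 110 s after a 10 s baseline. A subsequent 4uM final 54-4 (EC80) addition followed by a second 110 s read served as the antagonist phase.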
# TRPML1 blocker: inhibitors of human TRPML1 channel. TRPML1-inducible cells, Ca2+ dye fluorescence, FDSS; hits give low values; inhibition of EC80 agonist-evoked calcium signal. activity change, negative = inhibition, % (concentration not given with the values). actives 0.02% (n = 390,000); in the data active means activity change below about -50%; inconclusive means about -30% to -50%; inactive means above about -30%;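 further: stimulus is agonist 54-4 at its EC80 concentration; on the % scale 0 is the no-effect control and ±100 the full control effect; compound concentration not given in the record; the text of the record puts the active cut at -80%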
#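 Calcium fluorescence in TRPML1-DL cells induced overnight with Tet: a 110 s read after compound pin addition, then a 110 s antagonist read after challenge with 54-4 at 4 uM final (EC80).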
# D2 ag: activates the human D2 dopamine receptor; actives 0.084% (n = 360,000); activation, % (no concentration beside the values); DiscoveRx PathHunter D2 beta-arrestin, luminescence, 90 min; 100% = 57 uM dopamine signal; P14416; AID 624465; in the data active = activation above about 40%; inconclusive = about 15% to 40%; inactive = below about 15%; further: compound concentration not given in the record; the text of the record calls up to 30% inactive
#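 DiscoveRx PathHunter D2 beta-arrestin cells (2,100/well) attached overnight, then compound-stimulated 90 min at 37 C in HBSS/10 mM HEPES/0.1% Tween-20 buffer; beta-galactosidase complementation read by luminescence after 1 h at ambient temperature. Dopamine 57 uM final (EC100) as control.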
# PINK1 expr mod: PINK1 expression modulation | PINK1 immunofluorescence, high-content cytometry, 24 h | Potency, µM (doses to about 76.6 µM), for the others: at the top dose activation (PINK1 increase), most hits filed as activators | actives 0.2% (n = 410,000); active = well fitted activation curve with a large enough effect; inconclusive = small, poorly fitted or top-dose-only effect; inactive = flat fitted curve, though single readings scatter; cell line not stated here;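 further: potency means the concentration at half of the fitted maximal effect; % of control where 0% means no effect; nearly all actives have a fitted effect of over 65% in size; a mitochondrial uncoupler was the plate control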
#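 PINK1 protein, normally rapidly degraded, was detected by immunofluorescence after 24 hour compound treatment of a stable cell line. Titration data (5 concentrations) came from laser-scanning cytometry, with CCCP-treated wells as controls.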
# Six1-Eya2 blk: inhibitors of human Six1/Eya2 interaction; activity change, % (concentration not given with the values); actives 0.56% (n = 360,000); AlphaScreen GST-Six1/His-Eya2 binding, biochemical; hits give low values; control for the full effect not named in the record; Q15475+O00167; in the data active = activity change below about -65%; inconclusive = about -30% to -65%; inactive = above about -30%; further: on the % scale 0 is the no-effect control and ±100 the full control effect
# Target sequence (O00167 whole entry, looked up): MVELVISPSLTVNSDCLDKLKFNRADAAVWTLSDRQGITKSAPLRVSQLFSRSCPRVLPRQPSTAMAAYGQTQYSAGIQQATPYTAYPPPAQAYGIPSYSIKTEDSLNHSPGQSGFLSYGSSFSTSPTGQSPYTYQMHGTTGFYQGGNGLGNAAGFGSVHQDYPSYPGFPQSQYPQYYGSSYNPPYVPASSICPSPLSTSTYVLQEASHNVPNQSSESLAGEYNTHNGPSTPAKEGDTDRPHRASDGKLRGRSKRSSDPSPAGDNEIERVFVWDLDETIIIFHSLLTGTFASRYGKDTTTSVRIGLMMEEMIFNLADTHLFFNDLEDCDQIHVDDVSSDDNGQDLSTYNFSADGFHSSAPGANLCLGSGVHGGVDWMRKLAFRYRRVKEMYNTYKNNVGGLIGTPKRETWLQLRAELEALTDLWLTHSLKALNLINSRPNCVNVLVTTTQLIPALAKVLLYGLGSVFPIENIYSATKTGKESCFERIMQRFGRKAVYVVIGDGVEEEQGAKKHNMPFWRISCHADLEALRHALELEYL
# Target sequence (Q15475 whole entry, looked up): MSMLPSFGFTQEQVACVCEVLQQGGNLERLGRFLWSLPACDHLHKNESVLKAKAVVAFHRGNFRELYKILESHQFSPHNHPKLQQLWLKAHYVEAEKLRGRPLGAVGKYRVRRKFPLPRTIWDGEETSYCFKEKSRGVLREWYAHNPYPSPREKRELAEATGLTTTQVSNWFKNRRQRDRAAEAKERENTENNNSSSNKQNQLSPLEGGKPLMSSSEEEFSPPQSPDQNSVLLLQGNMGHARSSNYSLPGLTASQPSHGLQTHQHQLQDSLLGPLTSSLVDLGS
#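 Compounds are tested against tagged Six1 and Eya2 proteins bridged by glutathione donor and nickel acceptor beads; after a one-hour incubation at 37 °C without light, AlphaScreen emission is recorded.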
# D2 potentiator: positive allosteric modulators of human D2 dopamine receptor. actives 0.23% (n = 360,000). potentiation, % (test concentration not listed). DiscoveRx D2 beta-arrestin cells, luminescence, 90 min; 100% = 57 uM dopamine signal; active = potentiation of 50% or more; inconclusive = 30% to 50%; inactive = 30% or less;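 further: compound concentration not given in the record; tested on top of an EC20 dose of dopamine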
#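 PathHunter D2 cells, attached overnight at 37 deg C, received compound in DMSO plus dopamine at EC20 (50 nM final) for 90 min at 37 deg C. Beta-arrestin recruitment was read as luminescence after 1 h with detection reagent at ambient temperature.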
# Starred values were filed as active, the others as inactive; u = inconclusive; x = not tested or not shown; & = joins results of further samples; [ ] = another dose, or the depositor's remark.
structure	TRPML1 ag	TRPML1 blocker	D2 ag	PINK1 expr mod	Six1-Eya2 blk	D2 potentiator
NS(=O)(=O)c1ccc(CNC(=O)c2cccnc2Cl)cc1	0.3	-22	-1.5	-0.7%	10	-1
c1ccc(C2=Nc3cccc4cccc(c34)N2)cc1	0.0	-19	-4.5	2.3%	-11	-23
O=C(COc1ccc(/C=N/NC(=O)c2ccncc2)cc1)Nc1cccc([N+](=O)[O-])c1	0.3	-1	0.5	4.5%	-17	-2
CCC1(C)N=C(N)Nc2nc3cc(C)c(C)cc3n21 (stereo unspecified)	3.6	26	0.2	0.8%	0	-26
COc1ccc(CNC(=O)c2ccc(-c3cnn(C)c3)c3ccoc23)cc1OC	2.5	2	3.6	-0.1%	u	-6
O=C(N1CCCCC1)N1CCN(C(=O)N2CCCCC2)CC1	0.2	33	-8.7	-1.4%	15	-1
CCOC(=O)c1c(-c2ccc(OC)c(OC)c2)csc1NC(=O)C1CCCO1 (stereo unspecified)	3.4	5	6.9	3.4%	-9	13
COCOCCn1cc(CN2CCS(=O)(=O)N(Cc3ccc(-c4ccc(F)nc4)cc3)C(CC(C)C)C2=O)nn1 (stereo unspecified)	-0.4	-6	-4.4	1.5%	17	4
O=C1CC(c2ccccc2)Cc2[nH]c(=O)c(-c3nc(-c4ccc(F)cc4)cs3)cc21 (stereo unspecified)	1.3	-10	x	12%	x	x
CCN(Cc1ccccc1)Cc1cccc([N+](=O)[O-])c1	2.1	1	-4.4	3.7%[38.3 µM]	4	-23
CC(=O)c1ccccc1NC(=O)COC(=O)c1cc[n+]([O-])cc1	-1.3	-12	1.5	-0.5%	3	9
O=C(CCCN1CCC(O)(c2cccc(C(F)(F)F)c2)CC1)c1ccc(F)cc1	-0.1	-1	-4.0	5.4%	5	-34
CN(CC(=O)Nc1ccccc1C(F)(F)F)C(=O)c1ccc2c(=O)n3c(nc2c1)CCC3	0.0	-10	-0.1	-0.7%	-2	-1
O=C(Cc1cccc(NC(=O)C2CCN(C(=O)C3CC3)CC2)c1)Nc1cccc(C(=O)N2CCCC2)c1	1.8	5	1.8	-0.2%	2	10
Cc1[nH]c2ccc(CNS(=O)(=O)c3ccc(S(=O)(=O)N4CCOCC4)cc3)cc2c1C	1.0	15	4.5	x	-9	14
O=C(COC(=O)c1ccc(S(=O)(=O)N2CCCCCC2)cc1)Nc1ccccc1C(F)(F)F	0.1	-2	0.2	-1.5%	8	-9
Cc1noc(C)c1S(=O)(=O)N1CCN(c2ccc(Cl)cc2)CC1	-1.0	2	1.5	-0.6%	6	1
CC(OC(=O)c1ccc(F)cc1)C(=O)Nc1nc(-c2cccc([N+](=O)[O-])c2)cs1 (stereo unspecified)	2.7	18	4.2	u	-1	-7
COc1ccccc1CNc1ccc(-c2nc(-c3ccncc3)no2)cc1[N+](=O)[O-]	-0.6	6	x	2.5%	x	x
CC(C)N1CCC(N2CCN(Cc3cnc(-c4ccccc4)s3)CC2CCO)CC1 (stereo unspecified)	-0.1	-3	-0.8	-0.4%	4	-3

# Next section.
structure	TRPML1 ag	TRPML1 blocker	D2 ag	PINK1 expr mod	Six1-Eya2 blk	D2 potentiator
CCOc1ccc(-c2cc(-c3nc(-c4cc(OC)c(OC)c(OC)c4)no3)[nH]n2)cc1Cl	-0.5	-1	x	-1.7%	x	x
c1ccc(CCCNc2ncccn2)cc1	1.7	16	-0.4	5.5%	6	-5
COc1cc(C(=O)Nc2ccccn2)cc(OC)c1OC	0.8	15	1.4	-1.0%	0	-5
CCCNC(=O)c1cc(C2CCCN(C(=O)c3ccc(NC(C)=O)cc3)C2)on1 (stereo unspecified)	-0.6	x	-4.2	0.3%	-6	-3
Cc1cc(Cl)ccc1NC(=S)NCc1ccc(Cl)cc1	1.9	3	0.9	0.4%	2	-18
Cc1noc(NS(=O)(=O)c2ccc(NC(=O)c3ccc(N(C)C)cc3)cc2)c1C	-0.1	-6	-4.0	-1.1%	-6	-2
OCCNCCCOc1cc(Cl)ccc1Cl	4.9	-6	-3.1	0.7%	-3	-17
Cc1ccc(S(=O)(=O)CCC(=O)Nc2sccc2C(N)=O)cc1	0.3	34	1.7	-1.8%	-17	-1
Cc1noc(/C=C/N(C)C)c1S(=O)(=O)N1CCCC(C(=O)NCc2ccc(Cl)cc2)C1 (stereo unspecified)	1.2	-19	-1.5	8.4%[38.3 µM]	-12	-1
O=C(NCCN1CCOCC1)[C@H](Cc1ccccc1)N1C(=O)c2ccccc2C1=O	0.7	-13	2.4	0.2%	-3	-20
CC(=O)Nc1ccc(SCCN2CC[C@@H](O)CCC2=O)cc1	0.0&-0.4	24	-2.4	2.1%	4	0
COc1cc(/C=C2\SC(=N)N(c3ccc(F)cc3)C2=O)ccc1O	1.2	16	0.8	3.4%	-18	-20
COc1ccc(NC(=O)CCSc2nc(C)cs2)cc1	-0.5	14	-3.6	0.7%	15	-9
CC(C)(C)CNC(=O)[C@]1(C)CCC[C@@]2(C)C3CC[C@@]4(C)C[C@]3(CCC21)CC4=O (stereo partly specified)	0.2	36	2.7	-0.2%	4	-2
CC(C)c1ccc(NC(=O)COC(=O)/C=C/c2cccc(Br)c2)cc1	0.3	46	-6.8	13%	3	4
CCc1nc2ccccc2nc1N1CCN(S(=O)(=O)c2ccccc2)CC1	1.4	41	-2.6	3.9%	0	-12
COc1cccc(NC(=O)C2(C)CCN2C(=O)Cc2ccc(C(C)C)cc2)c1 (stereo unspecified)	0.4	x	2.3	1.3%	2	0
Cc1ccccc1NS(=O)(=O)c1cc(C(=O)Nc2cccc(N(C)S(C)(=O)=O)c2)ccc1C	1.3	4	5.6	5.0%[38.3 µM]	-2	0
O=C(Nc1ccc(F)cc1Cl)C1Cc2ccccc2N1C(=O)c1ccccc1 (stereo unspecified)	0.6	9	x	2.4%	x	x
O=C(COCc1ccccc1)N[C@@H](Cc1ccc(O)cc1)C(=O)O	0.4	4	-7.3	1.9%	9	-5

# (next part)
structure	TRPML1 ag	TRPML1 blocker	D2 ag	PINK1 expr mod	Six1-Eya2 blk	D2 potentiator
O=C(c1ccco1)N1CCCC(c2nc3c(nnn3Cc3ccc(F)cc3)c(=O)[nH]2)C1 (stereo unspecified)	-0.3	-5	-2.5	0.0%	9	-3
COc1ccc(C(C(=O)NC2CCCC2)N(C(=O)c2snc(C(N)=O)c2N)c2cc(C)ccc2OC)cc1OC (stereo unspecified)	1.9	3	-0.5	3.9%	-4	-6
C[C@H](NC(=O)CC[C@H]1O[C@@H](n2ccc(=O)[nH]c2=O)[C@H](O)[C@@H]1O)C(=O)O	0.5	-10	-3.5	5.9%	6	-5
O=C(NC1(C(F)(F)F)NC(=O)N(CCc2ccccc2)C1=O)C1CC1 (stereo unspecified)	-0.1	-3	-1.5	0.7%	5	2
COc1ccc(/C=N/NC(=O)c2[nH]c3ccc(Br)cc3c2-c2ccccc2)c(C(=O)O)c1OC	0.4	-9	-2.0	5.4%	u	-8
CCOC(=O)c1c(C)[nH]c(C)c1S(=O)(=O)N1CCC(C(=O)N2CCN(c3cc(C)ccc3C)CC2)CC1	-0.7	-16	x	1.2%	x	x
O=C(Oc1ccc(F)cc1)N1CCOCC1	-0.5	7	-3.1	-0.2%	-2	-23
COc1cc(CC(=O)OCC(=O)NCC(C)C)cc(OC)c1OC	0.6	-5	4.4	0.5%	7	1
Cc1ccc2c(c1)N(CC(=O)NCCCN1CCCC1)C(=O)CO2	-0.4	14	3.2	0.2%	1	-6
CN(NC(N)=O)c1ncc(C(F)(F)F)cc1Cl	0.2	-17	0.5	0.3%	9	8
O=C(O)c1cccc(-n2c(O)c(C=C3N=c4ccccc4=N3)sc2=S)c1	0.0	-19	-4.6	0.0%	-7	-7
Cc1cc(/C=N/N2CCN(C)CC2)c(C)n1-c1ccccc1F	-0.2	1	-5.1	-1.9%	-4	-8
Cc1cc(C)c(C#N)c(SC(F)F)n1	1.6	19	0.5	-2.1%	4	-6
Cc1cccc(C)c1NC(=O)COC(=O)c1cccc2c1C(=O)c1ccccc1C2=O	2.5	-21	2.7	u	2	u
COc1ccc(C)cc1Nc1n[n+](C)c(-c2c3ccccc3cc3ccccc23)s1	0.9	5	-0.7	1.5%	-18	0
COc1ccc(CNC(=O)COC(=O)c2ccc(OCC3CCCO3)cc2)cc1 (stereo unspecified)	-0.6	-11	-0.5	14%	0	7
Cc1ccc2c(c1)COc1c3ccc(C(=O)N4CCOCC4)cc3nn1-2	-0.7	1	-1.7	1.8%	-4	-11
C/C(=N\Nc1nc2ccccc2c(=O)n1O)c1ccco1	0.5	5	-0.8	-0.5%	2	2
O=C(NCc1ccccc1)/C(=C/c1cccc([N+](=O)[O-])c1)NC(=O)c1ccco1	0.5	42	2.4	0.4%	-1	2
CC1CCCCN1CC(O)COCc1ccc(Cl)cc1 (stereo unspecified)	3.5	-12	-1.0	1.2%	4	-6

# Arranged by number of heavy atoms (low to high): some entries from above
structure	TRPML1 ag	TRPML1 blocker	D2 ag	PINK1 expr mod	Six1-Eya2 blk	D2 potentiator
O=C(Oc1ccc(F)cc1)N1CCOCC1	-0.5	7	-3.1	-0.2%	-2	-23
C/C(=N\Nc1nc2ccccc2c(=O)n1O)c1ccco1	0.5	5	-0.8	-0.5%	2	2
O=C(N1CCCCC1)N1CCN(C(=O)N2CCCCC2)CC1	0.2	33	-8.7	-1.4%	15	-1
CN(CC(=O)Nc1ccccc1C(F)(F)F)C(=O)c1ccc2c(=O)n3c(nc2c1)CCC3	0.0	-10	-0.1	-0.7%	-2	-1

# Further results
structure	TRPML1 ag	TRPML1 blocker	D2 ag	PINK1 expr mod	Six1-Eya2 blk	D2 potentiator
N#C/C(=C\c1c(Oc2ccc(F)cc2)nc2ccccn2c1=O)c1nc2ccccc2s1	0.2	-26	x	0.8%	x	x
COc1cccc(CN(CCC(C)C)S(=O)(=O)c2cc(Br)ccc2Br)c1	10	-12	-1.9	4.9%	23	1
C[C@@H](C(=O)NCc1ccccc1)[C@@H]1C[C@@]1(C)[C@@H](NC(=O)OCc1ccccc1)c1ccccc1	0.3	13	1.9	1.5%	3	-7
O=C(CCCN1C(=O)c2ccccc2C1=O)NCCc1ccc(OC(F)F)cc1	-0.5	10	-3.8	2.3%	-5	-9
Cc1ccc(S(=O)(=O)N(C)Cc2cc3cc(C)ccc3[nH]c2=O)cc1	-0.9	11	-3.6	7.3%	4	-4
Cc1ccccc1CNC(=O)C1CCCN(S(=O)(=O)N(C)c2ccc(F)cc2)C1 (stereo unspecified)	0.3	-16	x	6.2%	x	x
COc1cc(C(=O)NC(C)C2CC3CCC2C3)cc(OC)c1OC (stereo unspecified)	0.2	12	7.6	0.5%	-2	-2
Cc1ccc(Nc2nnc(SCC(=O)Nc3ccc(S(=O)(=O)N4CCOCC4)cc3)s2)cc1	-0.3	-11	0.5	4.0%	-8	-16
COc1cc(NC(=O)C(C)(C)C)c(C(=O)OCC(=O)Nc2cc(C)on2)cc1OC	0.2	15	-2.8	-0.8%	11	-13

# Bioassay records from PubChem.
